# CSC inhib = cancer stem cell viability inhibitors, primary screen, luminescence; inhibition, % at 7.5 µM; hit rate 1.1% among 300,000; AID 2717, 2010; cancer stem cell-like cells viability;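 active = mean at 75% or more and at least half the replicates too; inconclusive = mean and replicates disagree; tested in HMLE shEcad cells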;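 note: 0% = median of negative and 100% = median of positive control wells; the first replicate is given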
# HIV Env fusion = inhibitors of HIV-1 Env-driven cell-cell fusion, primary screen, HeLa-JRFL effector, CEM21 target cells, luciferase | hit rate 1.1% among 360,000 | AID 651610, 2012 | inhibition, % at 12.3 µM;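 active = mean replicate inhibition score of at least 50 and every replicate individually at or above 50; inconclusive = only one of the two criteria met; inactive = mean below 50 and not all replicates reaching 50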;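 note: 0% = plate neutral controls and 100% = maraviroc near 300 nM; one replicate is shown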
# UUG fidelity = modulators of yeast start codon fidelity, primary screen, whole organism, S. cerevisiae, single point, plate reader. S. cerevisiae UUG-firefly luciferase reporter, luminescence/redox ratio. activity score, % at 18.7 µM. hit rate 0.13% among 350,000. AID 602363, 2012;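 active = replicate mean at a twofold rise or more, about +100% in these data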;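 note: firefly luciferase made from a UUG start codon reports start codon fidelity; reporter light over untreated wells divided by growth signal over untreated wells; some hits fall short of that in this replicate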
# MT1-MMP act inh = blockers of MT1-MMP proenzyme processing, primary screen, HT1080 RFP-PRO-GFP cells, GFP/RFP fluorescence | GFP/RFP ratio fluorescence, overnight; percent of plate control window, DMSO zero | AID 651647, 2012 | GFP/RFP ratio change, % at 20 µM | hit rate 0.061% among 360,000;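 active = GFP/RFP ratio change of at least 30% with cell ATP level not reduced by more than half and red fluorescence within 50% of control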; note: strong numbers were not always called active
#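 Compound: 20 µM single dose, 1% DMSO / System: HT1080 RFP-PRO-GFP cells / Controls: DMSO and RFP-L50D-GFP cell wells / Read-out basis: GFP/RFP fluorescence ratio / Schedule: overnight compound exposure at 37 °C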
# eIF4H FP inh = human eIF4H binding inhibitors, primary screen, translation initiation inhibitor project, biochemical, uHTS, fluorescence polarization; eIF4H fluorescence polarization binding assay; inhibition, % at 35 µM; hit rate 0.94% among 290,000; AID 2012, 2009;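 active = 50% or more with normal probe brightness, or confirmed in later tests; inconclusive = above 50% with abnormal brightness, or retests that disagree; inactive = below 50% or failed in later tests; about a fifth of its hits are not listed in these tables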;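 note: calls also rest on retests at 20 µM and on dose response follow-up; 0% = protein and probe with vehicle and 100% = probe without protein; strong numbers were not always called active; many hits fall short of the cut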
# Rce1 inhib = yeast Rce1p protease inhibitors, primary screen, biochemical, fluorescence, cell-free homogeneous. hit rate 0.27% among 290,000. calls only. yeast membranes, quenched prenylated peptide cleavage fluorescence. AID 2563, 2010. CAAX prenyl protease 2 (Saccharomyces cerevisiae (strain ATCC 204508 / S288c)), Q03530;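 active = fall in fluorescence gain of 50% or more versus controls, with final raw signal at or below 3038400; inconclusive = same 50% fall but final raw signal above 3038400; inactive = fall in fluorescence gain under 50%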;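 note: plate controls were neutral control wells for no effect and wells lacking membranes for full effect; tested at 10 µM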
# PABP polyA inh = PABP poly(A) RNA binding inhibitors, primary screen, biochemical, fluorescence polarization, uHTS | Polyadenylate-binding protein 1 (Homo sapiens), P11940 | inhibition, % at 35 µM | hit rate 1% among 290,000;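 active = 50% or more with normal probe brightness, or confirmed in later tests; inconclusive = above 50% with abnormal brightness, or retests that disagree; inactive = below 50% or failed in later tests; about a fifth of its hits are not listed in these tables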;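 note: calls also rest on retests at 20 µM and on dose response follow-up; controls were probe without protein and protein plus probe with vehicle; some compounds called inactive have numbers as strong as hits; many hits fall short of the cut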
# Target sequence (P11940 whole entry, looked up): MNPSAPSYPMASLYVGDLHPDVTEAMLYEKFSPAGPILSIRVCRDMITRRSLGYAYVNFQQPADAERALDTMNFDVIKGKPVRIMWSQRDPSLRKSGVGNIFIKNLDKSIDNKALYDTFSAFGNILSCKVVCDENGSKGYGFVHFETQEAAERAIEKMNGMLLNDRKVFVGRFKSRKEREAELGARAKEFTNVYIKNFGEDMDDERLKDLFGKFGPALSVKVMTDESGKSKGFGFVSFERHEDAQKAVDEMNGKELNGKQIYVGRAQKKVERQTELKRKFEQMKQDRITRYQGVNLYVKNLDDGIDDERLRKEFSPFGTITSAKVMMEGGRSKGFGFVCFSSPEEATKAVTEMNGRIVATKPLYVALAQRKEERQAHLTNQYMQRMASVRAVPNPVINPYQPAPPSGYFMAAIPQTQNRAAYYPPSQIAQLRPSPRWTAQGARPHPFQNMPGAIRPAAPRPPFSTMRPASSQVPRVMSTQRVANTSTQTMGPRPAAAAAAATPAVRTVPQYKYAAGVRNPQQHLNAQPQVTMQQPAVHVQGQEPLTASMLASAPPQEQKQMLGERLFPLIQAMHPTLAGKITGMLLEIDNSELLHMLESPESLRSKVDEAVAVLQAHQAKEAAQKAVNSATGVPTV
# MT1-MMP act inh RFP = second read-out of MT1-MMP act inh, no call of its own (marks repeat the call); RFP signal change, %; measured here: RFP expression control read;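 0 = vehicle wells; hits needed this value within 50% of zero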
# Starred values were filed as active, the others as inactive; i = inactive; ? = inconclusive; . = not tested or not shown.
# A first look (two entries):
SMILES,CSC inhib,HIV Env fusion,UUG fidelity,MT1-MMP act inh,MT1-MMP act inh RFP,eIF4H FP inh,Rce1 inhib,PABP polyA inh
COc1cccc(C(=O)NNC(=O)Cc2ccc([N+](=O)[O-])cc2)c1,-6.2,-1.6,.,1.1,6.1,-0.8,i,0.2
Cc1nnc(Nc2ccc(O)cc2)[nH]c1=O,-19.9,-25.8,-14.5,3.3,0.3,22.6,i,7.4

# The whole of this part (from the top)
SMILES,CSC inhib,HIV Env fusion,UUG fidelity,MT1-MMP act inh,MT1-MMP act inh RFP,eIF4H FP inh,Rce1 inhib,PABP polyA inh
COc1cccc(C(=O)NNC(=O)Cc2ccc([N+](=O)[O-])cc2)c1,-6.2,-1.6,.,1.1,6.1,-0.8,i,0.2
Cc1nnc(Nc2ccc(O)cc2)[nH]c1=O,-19.9,-25.8,-14.5,3.3,0.3,22.6,i,7.4
Cn1c(SCC(=O)N2c3ccccc3CCc3ccccc32)nnc1-c1ccc(O)cc1,-7.8,-14.2,0.2,-5.1,-0.1,-12.8,i,-3.0
COc1cc(-c2c(C(C)=O)c(C)nc3c2C(=O)c2ccccc2-3)cc(OC)c1OC,.,-42.6,4.0,-3.4,-2.6,6.8,i,2.5
COC(=O)c1ccc(N2Cc3ccccc3/C2=N\C(=O)Nc2ccccc2)cc1,-22.3,-31.5,-13.3,-11.6,-5.3,-14.9,i,-1.0
Cc1cc(Cl)ccc1OCC(=O)n1cc(C(=O)c2cc(Cl)ccc2O)cn1,5.5,.,.,.,.,-13.1,i,8.8
CCc1ccc(C(C(=O)NC2CCCC2)N(C(=O)c2csnn2)C2CC2)cc1 (stereo not drawn),3.2,6.2,-8.9,-4.1,-1.2,0.6,i,-6.6
O=C(NC1CCCCC1)c1ccccc1-c1ccccc1,1.8,.,.,-0.6,3.2,4.1,i,0.6
C/C(=N\NC(=O)c1c([N+](=O)[O-])c(C)nn1C)c1ccc(NC(=O)c2ccc(C)o2)cc1,.,-17.4,-4.1,3.7,-2.1,-9.3,i,-3.1
COc1cccc(C(c2nnnn2C(C)(C)C)N2CCN(C/C=C/c3ccccc3)CC2)c1OC (stereo not drawn),.,-42.9,-1.9,0.3,0.3,.,.,.
CN(C)c1ccc(C(=O)N(Cc2ccccc2)Cc2ccccc2)cc1,2.5,17.6,-9.5,1.0,-3.0,-3.5,i,-1.4
C=CS(=O)c1sc(Cl)c(N2CCOCC2)c1[N+](=O)[O-] (stereo not drawn),.,0.1,.,.,.,7.6,i,13.6
Cc1ccc(-n2c(SCC(=O)c3c(N)n(C)c(=O)n(C)c3=O)nc3sc4c(c3c2=O)CCCC4)c(C)c1,4.8,37.4,.,-8.6,-5.7,-2.9,i,9.0
COc1ccc2sc(-c3ccc(S(C)(=O)=O)cc3)c(-c3ccc(SC)cc3)c2c1,.,-2.4,-13.0,-12.8,-5.4,.,.,.
CC(=O)c1cccc(NC(=O)c2c(-c3c(F)cccc3Cl)noc2C)c1,-9.1,-0.9,9.7,-0.9,0.1,.,.,.
CCc1ccc(NC(=O)COC(=O)CN2C(=O)COc3ccccc32)cc1,-0.8,20.8,-10.3,-6.7,3.8,5.1,i,7.1
CC(C)N(C(=O)[C@H]1C[C@H](CC(=O)NCC23CC4CC(CC(C4)C2)C3)C(=O)N2CCc3c([nH]c4cc(-c5ccco5)ccc34)[C@]12C)C(C)C,.,-11.5,-15.1,-8.0,-11.9,.,.,.
O=C(CSc1nnc(CNC(=O)c2ccc(F)cc2)o1)NCc1ccc(F)cc1,5.6,4.0,-7.6,-2.0,0.8,-7.7,i,-12.1
CCC1(C)N=C(N)Nc2nc3cc(C)c(C)cc3n21 (stereo not drawn),12.7,1.5,-17.3,7.0,3.8,2.2,i,5.9
CCOC(=O)CSc1ccc(C(=O)Nc2ccc(Cl)cc2)cn1,-11.8,17.0,.,-1.1,1.9,-9.3,i,-13.9
COc1ccc(-n2nnc3c(SCC(=O)NCC4CCCO4)ncnc32)cc1 (stereo not drawn),3.3,.,.,2.9,-1.0,-14.8,.,-6.5
Nc1nnc(SCC(=O)NCC(=O)Nc2ccc(F)c(F)c2F)s1,.,-6.1,-23.9,-0.7,8.8,.,.,.
Cc1ccc(C(=O)Nc2ccc(Oc3cccc(C(F)(F)F)c3)nc2)cc1,-0.5,13.0,1.0,0.7,-21.4,-4.5,i,1.8
CSc1ccc(NC(=O)Nc2ccccc2C(N)=O)cc1,-7.0,-16.9,-18.7,4.5,5.2,1.1,i,5.8
COc1ccc(C(=O)Nc2cc(Cl)ccc2N2CCOCC2)cc1S(=O)(=O)N1CCOCC1,.,9.3,-0.3,-1.5,-6.0,.,.,.
CCCCCC(=O)Nc1cccc(C2=NOC3(C2)C[C@@H](C(N)=O)N(C(=O)C2(C)CC2)C3)c1 (stereo partly drawn),-10.6,-7.5,1.0,-1.5,1.2,-9.4,i,-3.3
N#C/C(=C\c1ccc(OC(=O)c2cccs2)cc1)c1nc2ccccc2[nH]1,13.7,-111.4,.,-44.1,-6.0,?,i,1.0
CC(C)(C)C1CCc2c(sc(NC(=O)c3cccs3)c2C(=O)N2CCCCC2)C1 (stereo not drawn),.,.,.,-2.0,1.8,-3.8,i,10.1
N=C1S/C(=C\c2cccc3ccccc23)C(=O)N1c1ccc(F)cc1,97.2*,.,.,4.6,-10.9,-3.6,i,-4.4
COc1cc(SC)ccc1C(=O)N1CCN(Cc2ccc3c(c2)OCO3)CC1,-12.6,30.0,-3.5,-3.9,-23.7,-9.4,i,-2.6
CCCCCCc1nc2ccccc2c(=O)n1N,-5.9,.,-14.5,-1.7,-4.3,-10.2,i,-4.0
CCCNC(=O)Nc1ccc2c(c1)OC[C@H](C)N(C(=O)C1CCCCC1)C[C@@H](C)[C@H](OC)CN(C)C2=O,.,-1.4,11.6,-2.0,2.1,.,.,.
CC(C)Cn1c(SCC(=O)Nc2ccc(Cl)cc2F)nc(O)cc1=O,-7.2,24.4,-16.9,2.7,1.4,.,.,.
Cc1ccc(-c2nnc(-c3ccccc3)c(-c3ccccc3)n2)cc1,4.4,4.8,-8.7,-5.9,-1.5,-2.7,i,-3.9
C=C(C)c1cccc(C(C)(C)NC(=O)Nc2ccc3[nH]c(=O)[nH]c3c2)c1,.,.,-0.7,2.9,3.6,-7.3,i,3.7
c1ccc(CSc2nnc(-c3cccnc3)o2)cc1,-11.3,.,.,-6.3,-7.3,10.2,i,1.1
COC(=O)[C@@]12CCCN1[C@H](c1ccc(-c3cccc(Cl)c3)cc1)[C@H]1C(=O)N(C)C(=O)[C@H]12,6.4,1.6,5.2,4.0,-0.1,.,i,.
COC(=O)c1cccc(NC(=S)NCc2ccc(Cl)cc2)c1,-8.0,.,-13.4,5.5,-5.6,-6.8,i,7.4
COc1ccccc1C=NC(CO)C(O)c1ccc([N+](=O)[O-])cc1 (stereo not drawn),-16.3,.,-24.2,-1.6,0.6,2.3,i,-3.4
COc1ccc(N(CCC(=O)O)S(=O)(=O)c2ccc(C)c(C)c2)cc1,-9.4,-6.4,-12.7,-1.5,0.0,-9.0,i,3.4
CCCS(=O)(=O)N1CCN(S(=O)(=O)c2ccc(F)cc2)CC1,-17.0,-2.7,2.5,-2.0,2.7,0.9,i,2.6
Nc1nc2n(n1)C(c1ccco1)CC(c1ccc(Cl)cc1Cl)N2 (stereo not drawn),15.4,.,.,-2.7,-1.6,-10.5,i,-1.1
COc1ccc(Cl)cc1-c1cc(C(=O)NCc2ccco2)[nH]n1,.,-3.8,-0.5,2.1,-2.8,.,.,.
CN(CC(=O)Nc1ccccc1C(=O)NC1CC1)Cc1ccc(Cl)cc1,5.8,.,-11.3,-3.8,-3.7,.,.,.
CNS(=O)(=O)c1cn(CC(=O)NCc2ccc(OC)cc2)cc1S(=O)(=O)NC,-22.7,-2.4,-20.3,-0.2,4.2,-1.1,i,1.6
COc1ccc(CCn2c(=N)c(S(=O)(=O)c3ccc(Cl)cc3)cc3c(=O)n4ccccc4nc32)cc1,5.3,-2.7,-13.4,-18.0,0.3,-1.3,i,40.7
COc1ccccc1OCCNC1CCCC1,-3.6,-17.8,-17.2,1.0,3.6,-3.8,i,7.8
CCCCCC(O)CCc1n[nH]c(=S)n1-c1ccccc1 (stereo not drawn),-2.6,.,.,2.9,-0.9,-0.3,i,11.5
CN1/C(=C\C(=O)CSc2ncn[nH]2)C(C)(C)c2ccccc21,-1.1,-17.8,-13.0,2.3,4.3,0.6,i,-6.0
Cc1cccc(-c2cc3nc(C)cc(C)n3n2)c1,-11.0,-104.2,.,-5.3,-16.4,-0.4,i,-5.3
Cc1nc(=O)c(-c2ccccc2)c(C)n1-c1ccccc1O,-8.1,.,-17.8,0.4,1.8,-7.9,.,6.5
Cc1ccc(-n2c(=O)[nH]cc(C(=O)N3CCc4ccccc43)c2=O)cc1,-15.2,-51.5,-10.8,0.2,3.9,8.1,.,1.1
S=C(NCc1cccs1)Nc1ccccc1Cl,-7.4,31.1,-23.2,-2.3,-7.8,-0.2,i,10.3
COc1ccc(OCCC(=O)OCC(=O)Nc2cccc(S(=O)(=O)N3CCCCC3)c2)cc1,-4.7,38.0,6.6,-0.2,1.5,.,.,.
COC(=O)C1=C(N)Oc2cc(C)oc(=O)c2C1c1cccnc1 (stereo not drawn),-11.0,-12.7,-7.5,-2.5,0.4,-11.0,i,14.7
COCC(=O)Nc1ccccc1C(=O)NC(C)C,-11.3,-9.8,-19.9,-3.0,1.7,0.8,i,-8.9
COc1ccc(-c2nnc(OC)c3ccccc23)cc1,-8.7,-2.1,-10.5,-0.7,-0.4,3.9,i,10.3
COc1ccccc1N1C(=NC(=O)C(C)Oc2ccccc2)SC2CS(=O)(=O)CC21 (stereo not drawn),-11.6,-10.0,-2.3,-0.8,4.4,3.3,i,-1.8
COc1ccc(S(=O)(=O)N2CCOCC2)cc1NC(=O)CSc1nnnn1C1CC1,.,4.7,-3.0,-0.2,2.9,.,.,.
C=CCOc1c(Br)cc(/C=N/NC(=O)Cc2ccc(C(F)(F)F)cc2[N+](=O)[O-])cc1OC,-12.2,-126.0,4.9,2.1,0.5,4.8,i,1.7
# The list continues.
SMILES,CSC inhib,HIV Env fusion,UUG fidelity,MT1-MMP act inh,MT1-MMP act inh RFP,eIF4H FP inh,Rce1 inhib,PABP polyA inh
COc1ccc(C(=O)/C=C/c2ccc(OC3CSC3)cc2)cc1,15.9,19.6,.,4.3,-0.1,-11.9,i,-0.1
COc1ccc(N2CCN(C(=O)CN(C)S(=O)(=O)c3cnc[nH]3)CC2)cc1,-3.6,-26.0,.,0.7,3.7,-2.1,i,-6.9
Cn1nc(C(F)(F)F)c(-c2cccc(C(F)(F)F)c2)c1NC(=O)Nc1ccc(F)cc1,4.7,0.5,-12.9,5.5,-3.7,-7.9,i,1.3
CNc1oc(Cc2ccccc2)nc1S(=O)(=O)c1ccccc1,3.8,.,-15.0,-6.0,7.3,-8.1,i,3.8
COc1ccc(/C=C/C(=O)NC(=S)Nc2ccc(S(=O)(=O)N=C(N)N)cc2)cc1OC,-6.1,-0.2,-7.0,2.8,5.7,-5.5,i,2.8

# Screens: PubChem BioAssay, several laboratories

# A portion of the library; count on the stated rates, not on these rows.
